Screening data as filed in PubChem BioAssay.
2A firefly – lowers the firefly signal of an FMDV 2A StopGo reporter. HEK cells with a luciferase reporter of 2A StopGo recoding. Potency, µM (titrated, usually from 57.5 µM), inactives show at the top dose signal change, negative = less light. 120,000 tested, 0.23% active; active = well fitted falling curve with a large enough effect; inconclusive = small, poorly fitted or top-dose-only effect; inactive = no such curve, though single readings can be large or run the other way; further: nearly all actives have a fitted effect of over 60% in size; overnight with compound
2A Renilla – lowers the Renilla signal of an FMDV 2A StopGo reporter. Potency, µM (top dose mostly 57.5 µM), for inactives: top-dose signal change, negative = less light. HEK cells with a luciferase reporter of 2A StopGo recoding. 120,000 tested, 0.32% active; active means well fitted falling curve with a large enough effect; inconclusive means small, poorly fitted or top-dose-only effect; inactive means no such curve, though single readings can be large or run the other way; further: nearly all actives have a fitted effect of over 55% in size; overnight with compound
* = called active by the depositor; ? = inconclusive; & = joins results of further samples; [ ] = another dose, or the depositor's remark. On the % scale 0 is the no-effect control and ±100 the full control effect; potency means the concentration at half of the fitted maximal effect. Not a hit list. Share with any hit: about 0.55%.

Order of values: 2A firefly, 2A Renilla
CCc1ccccc1NC(=O)c1cc2nc(-c3ccc(Br)cc3)cc(C(F)(F)F)n2n1
  3.9%, 32.7%[activator]
Cc1[nH]c(C)c(S(=O)(=O)N2CCN(c3ccc(Cl)cc3)CC2)c1C(=O)N1CCCC1
  -0.2%, 19.7%
CC(C)OC(=O)C1=C(N)OC2=C(C(=O)CC(C)(C)C2)C1c1ccc(Cl)cc1 (stereo not drawn)
  16.4%, 18.2%
CCOc1nc2ccccc2nc1N1CCC(C(=O)Nc2cccc(F)c2)CC1
  -4.2%, -5.4%
Cc1cccc2[nH]c(COc3ccc(F)cc3)nc12
  195.0%[activator], 3.0%
CCc1ccccc1NC(=O)CN(c1cccc(C)c1C)S(C)(=O)=O
  -17.5%, 21.8%
CCOc1ccc(N2CC(c3nc4ccccc4n3CCC3CCCCC3)CC2=O)cc1 (stereo not drawn)
  -11.9%, -7.3%
CCNC(=S)NNC(=O)c1ccc(C)cc1
  0.0%, -3.5%
CCCCCn1c(=O)n(CC(=O)Nc2ccccc2C)c(=O)c2c1ncn2CC(C)C
  -8.4%, -11.1%
COc1cc(NC(=O)CCNC(=O)Cn2cnc3ccccc3c2=O)cc(OC)c1OC
  -9.6%, -8.4%
C=Cc1ccc(Cn2c(C)c(CNCc3cccc(Br)c3)c(C(=O)O)c2C)cc1
  -5.7%, -6.2%
COc1cccc(-c2n[nH]c(=O)c3c2C(c2ccc(C(C)(C)C)cc2)n2nnnc2N3)c1 (stereo not drawn)
  -5.0%, -4.9%
CCCn1c(N)c(C(=O)CSc2ccc3ccccc3n2)c(=O)n(C)c1=O
  34.1%[activator], -9.9%
COc1cc(Nc2nc3ccc(Cl)cc3nc2-n2nc(C)cc2C)cc(OC)c1
  5.3%, 13.0%
CCCNC(=O)C(=O)NC1CCC(C(C)(C)CC)CC1 (stereo not drawn)
  0.1%, -12.9%
Cc1ccc(S(=O)Cc2ccc(C(=O)NCc3ccc(OC(C)C)cc3)o2)cc1 (stereo not drawn)
  -7.2%, -2.4%
O=C(CCc1ncc(-c2ccc(F)cc2)o1)Nc1ccccc1
  0.0%, -3.5%
Cc1cccc(Cn2c(C)c(CNC3CCCCCC3)c(C(=O)O)c2C)c1
  -27.4%, 8.3%
Cc1c(C(=O)N2CCCCCC2)c(S(=O)(=O)Nc2cccc(C#N)c2)c(C)n1C
  -13.4%, 160.2%[activator]
COc1ccc(C2C(C#N)=C(SCC(=O)c3ccccc3)NC3=C2C(=O)CC(C)(C)C3)cc1OC (stereo not drawn)
  10.1%, 5.0%
COc1ccc(S(=O)(=O)Nc2c(C)nc3nc[nH]n3c2=O)cc1
  1.0%, -2.8%
COc1cc(C)ccc1OCCCn1c(-c2ccc(Cl)cc2)nc2ccccc2c1=O
  -9.5%, 1.4%
Cc1cccc(/C=C/c2ccc3c([N+](=O)[O-])cccc3n2)c1
  0.0%, -8.3%
COc1ccc(/C(=N\O)C(C)(C)O)cc1
  13.6%, 16.5%
Cc1ccc(NC(=O)c2nc3ccccc3nc2N2CCN(C)CC2)cc1C
  3.9%, -12.6%
Cc1ccc(C(=O)COC(=O)CCC(=O)Nc2ccc(Oc3ccccc3)cc2)cc1C
  11.9%, -9.4%
CSc1ccccc1NC(=O)/C=C/c1ccc(F)cc1
  255.1%[activator], 8.9%
CCOc1ccc(NC(=O)Cn2cc(C(=O)C3CC3)c3ccccc32)cc1
  23.2%, -25.8%
CCCOc1ccc(CNC(=O)c2cc3ccccn3n2)cc1
  193.9%[activator], 52.6%[activator]
O=C(CSc1nncn1-c1cccc(Cl)c1)Nc1ccccc1C(=O)NCCc1ccccc1
  89.2%[activator], 35.9%[activator]
O=C(OC1CCCCC1=O)c1ccc(Br)cc1 (stereo not drawn)
  15.9%, 2.1%
CCN(C(=O)CC12CC3CC(CC(O)(C3)C1)C2)c1ccccc1
  25.4%, 11.0%
CC(C)c1ccc(-c2noc(Cn3c(Cl)nc4c3c(=O)n(C)c(=O)n4C)n2)cc1
  15.4%, -4.5%
Cn1nc(C(=O)NCCN2CCCCCC2)c2c1-c1ccccc1OC2
  21.8%, -6.1%
COc1ccc(S(=O)(=O)Nc2ccc3c(c2)N(C(C)=O)CCC3)cc1F
  ?, -2.1%
CC(C)Oc1ccccc1C(C)NC(=O)Cc1cccs1 (stereo not drawn)
  19.3%, 27.9%
CC(=O)c1cc2c(cc1NC(=O)Cn1c(=O)n(C)c(=O)c3sccc31)OCO2
  30.6%[activator], 0.0%
O=C(CCn1c(=O)c2cccn2c2cccnc21)NCc1ccc(F)cc1
  -14.9%, 0.6%
CCc1ccccc1S(=O)(=O)Cc1ccc(C(=O)NCCc2ccc(C)cc2)o1
  -18.7%, 33.6%[activator]
CC(C)c1nc(-c2ccccc2NS(=O)(=O)c2ccccc2Br)n[nH]1
  ?, -43.8%
Cc1ccc(CN2C(=O)C3(c4ccccc42)N(c2ccc(F)c(Cl)c2)C(=O)CS3(=O)=O)cc1 (stereo not drawn)
  -8.0%, 0.2%
Cc1nc(COc2ccccc2C(=O)N2CCc3ccccc32)no1
  7.3%, 32.0%[activator]
CC(C)CN1CCN(CCc2ccccc2)CC1
  9.2%, -6.4%
CCC(CO)NS(=O)(=O)c1cc(Cl)c(Cl)cc1Cl (stereo not drawn)
  6.1%, 158.8%[activator]
CCOC(=O)c1ccc2nc(C)cc(Nc3ccc(OC)cc3)c2c1
  -0.1%, ?
CCOC(=O)N1CCN(C(C(=O)O)c2c[nH]c3ccc(OC)cc23)CC1 (stereo not drawn)
  -2.3%, -6.8%
COc1ccc(-n2cnc3c2NC(=O)CC3c2cccnc2)cc1 (stereo not drawn)
  9.7%, -7.5%
CCOc1ccc2cc(-c3nnc(Nc4ccccc4F)s3)c(=O)oc2c1
  26.0%, -7.2%
CCOc1ccc(NC(=O)C2CCCN(S(=O)(=O)c3ccc(Br)s3)C2)cc1 (stereo not drawn)
  -10.1%, 4.3%
Cc1ccc(CNC(=O)c2ccc(CSCc3ccccc3Cl)o2)cc1
  -6.6%, -3.7%
CCCCNc1oc(/C=C/c2cccc(OC)c2)nc1C#N
  180.5%[activator], 27.8%
CCC(=O)c1ccc(OC(=O)/C=C/c2cccc(Cl)c2)cc1
  14.8%, 3.5%
CCCN(C)Cc1ccc2c(c1)OCO2
  -4.2%, -1.2%
CCN(CC)C(=O)Cn1c(=O)n(-c2ccc(OC)cc2OC)c(=O)c2c(C)c(C(=O)N(CC)CC)sc21
  0.2%, -1.6%
O=C(Nc1ccc(Cl)c(C(F)(F)F)c1)C1CCCN(S(=O)(=O)c2cccc3cccnc23)C1 (stereo not drawn)
  -16.5%, 4.7%
CCc1cc(=O)oc2cc(C)cc(OC(C)C(=O)NCCN3CCOCC3)c12 (stereo not drawn)
  16.1%, -5.2%
CCc1ccccc1NC(=O)CSc1nnc(-c2cc(OC)c(OC)c(OC)c2)o1
  22.7%, 6.4%
O=C(NNC(=O)C1CCCC1)c1cccc([N+](=O)[O-])c1
  6.2%, -0.7%
O=C(N[C@@H]1C[C@H]2CC[C@@H]1C2)c1ccc(F)cc1
  189.9%[activator], 5.0%
O=C(O)CCCNS(=O)(=O)c1ccc(Cl)cc1
  ?, 23.5%

Carrying on:
Order of values: 2A firefly, 2A Renilla
CCc1cccc(NC(=O)COC(=O)c2cn(CC)c3nc(C)ccc3c2=O)c1
  -16.0%, -11.7%
Fc1ccc(F)c(C(Cl)(Cl)Cl)c1
  2.7%, 0.5%
Cc1nc(-c2cccc(F)c2)sc1CCNC(=O)c1ccc(F)c(F)c1
  -25.5%, ?
Cc1ccc2[nH]c3c(=O)n(CC(=O)NCCCN4CCN(c5ccc(F)cc5)CC4)ncc3c2c1
  0.3%, -1.9%
COc1ccc(C2NC(=O)c3c(sc4c3CCN(C)C4)N2)cc1O (stereo not drawn)
  30.4%[activator], -11.1%
Cc1ccc(CNC(=O)c2nnn(Cc3ccc(F)cc3)c2N)cc1
  8.9%, 13.2%
Cc1cccc(C)c1NC(=O)CN(C)Cc1cc(=O)oc2c(C)c(O)ccc12
  -19.8%, -6.8%
O=C(NC1CCCCCC1)C(Cc1ccccc1)NS(=O)(=O)c1ccc(Br)s1 (stereo not drawn)
  -3.6%, 61.2%[activator]
COc1ccc(NC(=O)Cn2c(=O)n(-c3ccc(OC)c(OC)c3)c(=O)c3ccccc32)cc1
  -5.9%, -2.6%
[O-][n+]1cccc(/C(Cl)=N/OC[C@@H](O)CN2CCCCC2)c1
  -12.0%, -8.8%
NC(N)=NC(N)=Nc1ccc(Br)cc1
  -8.7%&9.7%, 1.3%&-2.7%
COc1cccc(NC(=O)CCS(=O)(=O)c2ccc3c(c2)oc(=O)n3C)c1
  -16.3%, -12.5%
COc1ccc(OC)c(NC(=O)c2ccc3c(Cl)c4c(nc3c2)CCCC4)c1
  -2.8%, -3.1%
CCc1cccc(CC)c1NC(=O)COC(=O)c1cc(=O)c2ccccc2o1
  -8.9%, -9.0%
CCOC(=O)c1oc2ccc(S(=O)(=O)n3nc(-c4ccccc4OC)cc3N)cc2c1C
  -27.8%, -12.1%
Cc1ccc(CN2CCN(CC(=O)Nc3ccc(C)c(C)c3)S2(=O)=O)cc1
  8.5%, 6.5%
CSc1ccc(C)c(C(=O)NCC(C)C)c1
  5.1%, 1.3%
CC(C)n1cnnc1SCCOc1ccccc1Cl
  72.5%[activator], 24.1%
C/C(=N\N(c1ccccc1)c1ccccc1)c1ccc(Br)cc1
  8.5%, 1.2%
CCCCN(CC)CCCNC(=O)c1nn(C)c2c1CS(=O)(=O)c1ccccc1-2
  -11.3%, 1.2%
Cc1nn(CC(=O)NCCc2ccccc2Cl)c(=O)c2nn(-c3ccccc3)c(C)c12
  0.0%, 7.8%
Cc1c(C#N)c(NC(=O)CSc2nnc(C)n2-c2ccccc2)n(Cc2ccccc2)c1C
  0.8%, 5.6%
CC(CCN1CCC(C(O)(c2ccccc2)c2ccccc2)CC1)Oc1cccc(F)c1 (stereo not drawn)
  -6.5%, 1.0%
CC(=O)Nc1cc(C(=O)NCc2ccc(F)cc2)ccc1Sc1ccc(F)cc1
  -23.8%, -19.7%
CCCCOC(=O)COc1ccc2c(=O)c(Oc3ccc(CC)cc3)c(C(F)(F)F)oc2c1
  -10.6%, 0.3%
COc1ccc(NC(=O)CC2C(=O)N(c3ccccc3)C(=O)N2CCc2sccc2C)cc1 (stereo not drawn)
  17.1%, 73.2%[activator]
COc1ccc(Br)cc1CNC(=O)c1cc(=O)[nH]c2ccc(S(=O)(=O)N3CCCCC3C)cc12 (stereo not drawn)
  -23.1%, 59.9%[activator]
O=C1CC(c2nc3ccccc3n2CCC2CCCCC2)CN1c1ccccc1Cl (stereo not drawn)
  -21.6%, -15.2%
c1ccc2[nH]c(-c3ccc4c(c3)CCCC4)cc2c1
  151.1%[activator], 28.9%
O=S(=O)(Nc1nc2n(n1)C(c1ccc(F)cc1)C=C(c1ccccc1)N2)c1ccccc1 (stereo not drawn)
  15.2%, 15.5%
CCN(CC)CCCNC(=O)CNc1nc(Cl)nc2nc[nH]c12
  -2.7%, -1.3%
CC[n+]1c(C)ccc2ccccc21
  -6.2%, 3.1%
O=C(NCCc1c[nH]c2ccc(F)cc12)C1CCN(c2nc(Cl)nc3nc[nH]c23)CC1
  -5.2%, -4.0%
O=C(CCC1CCCC1)NCCNC(=O)CCC1CCCC1
  6.7%, 5.5%
Cc1ccc(Oc2ccccc2NC(=O)Cc2nn(C)c(=O)c3ccccc23)cc1
  ?, ?
COc1cc(OC)c(N(C)C(=O)c2c(C)oc3ncnc(N4CCCCC4)c23)cc1Cl
  -6.3%, -1.5%
CCOCCCNC(=O)CCl
  -8.3%, -5.2%
CCOC(=O)C1CCC(CN(Cc2ccc(Cl)cc2)S(=O)(=O)c2ccc(F)c(C(=O)Nc3cccc(F)c3)c2)CC1 (stereo not drawn)
  -11.0%, -9.2%
O=C(Nc1c(F)cc(F)cc1Br)C1CCN(C(=O)N2CCOc3ccccc32)CC1
  ?, 0.0%
Cc1ccc(-c2nc(CN3C(=O)C(=O)N(C(C)C)C3=O)co2)c(C)c1
  -2.8%, -11.4%
COc1ccc(-c2csc3ncnc(Nc4cc(OC)cc(OC)c4)c23)cc1
  -23.7%, -11.0%
N#C/C(=C/c1ccccc1OC(F)F)C(=O)Nc1cccc(C(F)(F)F)c1
  12.0%, 97.3%[activator]
COc1ccc(-n2nnnc2SCC(=O)Nc2cc(C)nn2-c2ccccc2C)cc1
  -5.5%, -4.1%
CCOCc1ccccc1Nc1ncnc2onc(-c3ccc(Cl)cc3)c12
  -6.8%, 3.8%
Cc1cc(C)c(S(=O)(=O)Nc2ccc(-c3ccc(N4CCCCCC4)nn3)cc2)cc1C
  25.9%, -1.6%
CCOc1ccc(NC(=O)Nc2ccc(CN3CCOCC3)cc2)cc1
  10.1%, -13.7%

Record cards, from the list above:
`CC[n+]1c(C)ccc2ccccc21` across the screens: 2A firefly: -6.2%; 2A Renilla: 3.1%
`COc1ccc(-n2nnnc2SCC(=O)Nc2cc(C)nn2-c2ccccc2C)cc1` across the screens: 2A firefly: -5.5%; 2A Renilla: -4.1%
